Compound activity deposited in PubChem BioAssay by National Center for Advancing Translational Sciences (NCATS).
HSD17B inhib – qHTS Assay for Inhibitors of HSD17B4, hydroxysteroid (17-beta) dehydrogenase 4. recombinant HSD17B10, NADH fluorescence kinetic; many of its hits are not listed in these tables. Potency, µM (series often up to 57.1 µM), for the others: at the top dose activity change, negative = inhibition, actives largely listed as inhibitors. AID 893, 2007. 3-hydroxyacyl-CoA dehydrogenase type-2 (Homo sapiens), Q99714. 7.6% of 75,000 active; active = well fitted inhibition curve with a large enough effect; inconclusive = small, poorly fitted or top-dose-only effect; inactive = no such curve, though single readings can be large or run the other way;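 also: the protocol describes HADH2 (HSD17B10) and not the HSD17B4 of the title; nearly all actives have a fitted effect of over 70% in size; most hits overshoot -100% by far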
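Activity followed as NADH fluorescence increase (ex 360, em 450 nm) every 30 seconds for 4 min, using final 90 uM beta-hydroxybutyryl CoA and 1 mM NAD+. Recombinant His-tagged enzyme, 20 nM, pH 9.0 Tris buffer, 15 min compound preincubation.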
An asterisk follows results filed as active; ? = inconclusive; & = joins results of further samples; [ ] = dose if it differs, or a comment. % is scaled to controls: 0 for no effect and ±100 for the full control effect; potency is read from the fitted curve at half-maximal effect.

molecule	HSD17B inhib
COc1ccc(O[C@H]2C=C[C@@H](c3ccccc3)O[C@@H]2CO/N=C(\C)CCN2CCCc3nc(C)c(C)cc32)cc1	-7.5%[11.4 µM]
NC(=O)SCC(=O)Nc1cccc(Cl)c1	3.5%
COc1cccc(NC=C2C(=O)OC3(CCCCC3)OC2=O)c1	-1.6%
CCCc1nnc(NC(=O)NCCN2C(=O)C3C4C=CC(C4)C3C2=O)s1 (stereo unspecified)	4.9%
Nc1cccc(C(=O)Nc2ccc3nc(-c4cccnc4)[nH]c3c2)c1	-9.4%
CCCCOC(=O)c1cc(=O)[nH]c2ccccc12	-25.3%
O=C(Nc1cc(C(F)(F)F)ccc1N1CCCC1)c1ccc2c(c1)OCO2	-8.9%
O=C(c1csnn1)N1CCC[C@@]2(CCN(Cc3nccs3)C2)C1	7.4%
COCCN1C(=O)c2ccc(C(=O)O)cc2C1=O	5.8%
O=C(CCN1CCN(c2ccc(F)cc2)CC1)Nc1ccc(F)cc1	-12.7%
FC(F)(F)c1cccc(-c2nnc3ccc(C(F)(F)F)cn23)c1	?
CCOc1cc(C(=O)N2CCOCC2)ccc1OCc1ccccc1	?
CC(=C/C=C/C(C)=C/C=C/C=C(C)/C=C/C=C(C)/C=C/C(=O)O)/C=C/C(=O)O	-6.1%
Cn1c(SCc2ccc(Br)cc2)nnc1-c1ccncc1	3.7%
O=C(c1cc2ccccn2n1)N1CCN(c2ccccn2)CC1	2.7%
CC1CCCC(C)N1C(=O)C1CC(c2ccc(F)cc2)=NO1 (stereo unspecified)	-3.4%
CSc1ccc(C2C3(C#N)C(N)=NC4(OCCO4)C23C#N)cc1 (stereo unspecified)	9.0%
CC(=O)c1ccc(NS(=O)(=O)Cc2ccccc2)cc1	-6.9%
Cc1ccc(C(C)C)c(OCC(=O)Nc2ccc(Cl)cn2)c1	-2.7%
c1coc(CN=C2NC(=NCc3ccco3)c3ccccc32)c1	5.7%
CS(=O)(=O)Nc1cccc(C(=O)CC2(O)C(=O)Nc3ccccc32)c1 (stereo unspecified)	-4.9%
COc1cccc(C2=NO[C@@H]3C(=O)N(c4ccc5c(c4)OCCO5)C(=O)[C@H]23)c1OC	-20.7%
Cc1ccc(Cn2ncc3c(NCCCN4CCOCC4)ncnc32)cc1	-0.4%
O=C(NCc1cccnc1)c1cccc(S(=O)(=O)N2CCCCC2)c1	1.4%
NC(=O)NC(=O)[C@H]1CCCC[C@@H]1C(=O)O	5.4%[11.4 µM]
CCNC(=O)N1c2ccc(OC)cc2C(C)=CC1(C)C	31.6µM*
Nc1c(NCCN2CCOCC2)c2ccccc2oc1=O	20µM*
Cc1ccccc1-c1nc(CS(=O)(=O)CC(=O)NCCCN2C(C)CCCC2C)c(C)o1 (stereo unspecified)	4.5%
CCN1CCCC1CNC(=O)CS(=O)(=O)Cc1nc(-c2ccccc2C)oc1C (stereo unspecified)	4.4%
Cn1c(=O)oc2cc(S(=O)(=O)NCc3ccco3)ccc21	1.5%
CCc1cc2ccc(OC)cc2nc1SCC(=O)Nc1cc(C)on1	-5.9%
Cc1cccc(CNc2ncncc2-c2ccccc2C)c1	-5.5%
CC(C)(C)C(=O)/C=c1\[nH]c(=O)/c(=C\c2ccc(C#N)cc2)s1	-8.7%
Cc1ccc2c3c(c(SCC(=O)Nc4nonc4C)nc2c1)CCCC3	-3.0%
COC(=O)c1ccc(NC(=O)Cn2nnc3ccccc32)cc1	-1.2%
COCCn1c(C)cc2c(c1=O)C(c1ccccc1F)C(C#N)=C(N)O2 (stereo unspecified)	4.3%
CCOC(=O)N1CCN(C(=O)C2CCC(CNS(=O)(=O)c3ccc(Cl)cc3)CC2)CC1 (stereo unspecified)	7.2%
COc1cccc2c1CCC1CC(=O)CC[C@@]21C (stereo partly specified)	0.8%
Cn1c(CCNC(=O)c2ccccc2)nc2ccccc21	5.6%
CC1=NNC(=S)NCCCN2CCN(CCCNC(=S)NN=C(C)C=NNC(=S)NCCCN3CCN(CCCNC(=S)NN=C1)CC3)CC2	-4.8%[11.4 µM]
Cc1ccccc1-n1c(C)nnc1SCc1nc2ccccc2s1	-3.0%
Cc1nc2sc(C(c3ccco3)N3CCN(c4ccc(F)cc4)CC3)c(O)n2n1 (stereo unspecified)	5.6%
O=S(=O)(c1ccccc1)c1nc(-c2ccco2)oc1NCc1ccco1	-8.3%
CCCN1C(=O)c2cc(C(=O)O)ccc2C1O (stereo unspecified)	-15.7%
Cc1cc(C)cc(OCC(=O)Nc2cccc(-c3nc4ncccc4o3)c2)c1	?
CCn1cc(C(=O)NCCCOC)c(=O)c2cc(S(=O)(=O)N(C)C)ccc21	-3.4%
CCOC(=O)Cc1csc(NC(=O)c2cccs2)n1	-2.8%
CCCn1c(SCC(=O)N2CCCc3ccccc32)nnc1-c1ccco1	-5.0%
Cc1c(CNC(=O)c2cnn3c2NC(c2ccccc2)CC3C(F)(F)F)cnn1C (stereo unspecified)	1.8%
O=C(NCc1cccnc1)C1CCCN(S(=O)(=O)c2ccc(Cl)cc2)C1 (stereo unspecified)	2.6%
O=C(Nc1ccon1)c1ccc(Br)o1	-19.6%
O=C(CCn1nnc2ccccc21)N1CCN(c2ccccc2)CC1	-0.4%
CCCCOC(=O)C(C#N)c1nc2ccccc2nc1N1CCN(Cc2ccc3c(c2)OCO3)CC1 (stereo unspecified)	1.2%
Cc1onc(-c2ccccc2)c1C(=O)NC(C)C1CCCO1 (stereo unspecified)	3.6%
O=C(COC(=O)c1ccco1)NCC1CCCO1 (stereo unspecified)	-12.4%
c1csc(Cn2c(-c3cccs3)nc3ccccc32)c1	25.1µM*
COc1ccc(OCC(=O)N2CCN(C(=O)COc3ccc(Br)cc3)CC2)cc1	1.3%
COc1cccc(-c2csc3nnc(SCC(=O)c4ccc(NC(C)=O)cc4)n23)c1	-5.6%
C=CCN1C(=O)CN=C1Nc1cc(C)cc(C)c1	-6.7%
Cn1c(=O)cc(SCC(=O)Nc2ccccn2)c2ccccc21	-6.5%

(next part)
molecule	HSD17B inhib
CCc1nnc(NC(=O)c2ccc(S(=O)(=O)N(CC)Cc3ccccc3)cc2)o1	-7.5%
CC(c1ccccc1)C1C(C#N)=C(N)OC2=C1C(=O)CC(C)(C)C2 (stereo unspecified)	-1.1%
COc1ccc(OC)c(NC(=O)CSc2nc3cccnc3n2C)c1	7.7%
CCCCC(=O)Nc1cccc(-c2cn3ccsc3n2)c1	-6.2%
Cn1c(=O)n(C)c2cc(/C=N/n3cnnc3)ccc21	31.6µM*
Cc1ccc(-n2c(SCC(=O)NCc3ccco3)nnc2-c2cccnc2)c(C)c1	31.6µM*
Cc1nc(CC(=O)N2CCN(S(=O)(=O)c3ccccc3C#N)CC2)cs1	-2.1%
CC(C)CO/N=C1/C[C@@H](O)[C@@H](O)[C@@H]2[C@@H]3C(=O)N(Cc4ccccc4)C(=O)[C@H]3CC[C@H]12	-2.1%[11.4 µM]
CN(C)CCNS(=O)(=O)N(C)C	0.7%[11.4 µM]
CO[C@@H](C(C)C)[C@@H](C)[C@@H]1OC(=O)C[C@@H]1O	5.0%[11.4 µM]
Cc1cccc(N2CCN(C(=O)CS(=O)(=O)Cc3nc(-c4ccccc4F)oc3C)CC2C)c1 (stereo unspecified)	-6.3%
Cc1cccc(OCc2nnc(SCc3nc4cc(C(F)(F)F)ccc4c(=O)[nH]3)o2)c1	31.6µM*
c1ccc(-c2cccc(N3CC4(CCNCC4)C3)c2)cc1	31.6µM*
CC1CC(C)CN(CCCNC(=O)Cn2ncc3c(=O)oc4ccccc4c32)C1 (stereo unspecified)	5.5%
COc1ccc(NC(=O)CSc2nc3ccccc3c(=O)n2CCNC(C)=O)c(OC)c1	2.8%
Cn1cnc2nc3n(c2c1=O)CCC3	13.2%
Cc1ccc(-n2ncc3c(=O)n(CC(=O)NC4CCCC4)cnc32)cc1C	-0.5%
CC(C)CNC(=O)c1ccccc1NC(=O)CN(c1ccc2c(c1)OCCO2)S(C)(=O)=O	0.2%
COc1ccccc1NC(=O)CCc1nc(-c2cccs2)no1	-3.7%
CN(C)c1ccc(CN(C(=O)COc2ccc(Br)cc2)C2CCS(=O)(=O)C2)cc1 (stereo unspecified)	-2.3%
CCCn1c(C)nc2c(NCCOC)nc(C)nc21	4.0%
CC(C)COc1ccc(-c2nnn(CC(=O)N3CCCC3)n2)cc1	-3.0%
O=C(CN1C(=O)C2CC=CCC2C1=O)NC1=NCCS1 (stereo unspecified)	9.0%
O=C(NCN1CCCCC1)c1cccnc1	25.3%
Clc1ccccc1-c1nc(NC2CCNCC2)c2ccccc2n1	2.2%
CCC(CC)C(=O)NCCc1ccc(OC)c(OC)c1	6.9%
Cc1ccc(NC(=O)CCNS(=O)(=O)c2ccc3c(c2)oc(=O)n3C)c(C)c1	1.8%
O=C(CCN1CCCCC1)c1csc2ccccc12	-11.3%[11.4 µM]
O=C(OCCN1CCCCC1)c1c[nH]c2ccccc12	2.2%&-3.0%
CCCc1[nH]nc2c1C(C1CC=CCC1)C(C#N)=C(N)O2 (stereo unspecified)	-17.4%
Cc1onc(-c2ccccc2Cl)c1-c1nc(-c2ccccn2)no1	-9.3%
CCOC(=O)c1c(NC(=O)CSc2nnnn2-c2ccc3c(c2)OCO3)sc(C)c1C	-2.2%
Cc1ccc(S(=O)(=O)Nc2nc3ccc(S(C)(=O)=O)cc3s2)cc1	-28.4%
CCOCCCNC(=O)c1c[nH]c2ccc(S(=O)(=O)Nc3cccc(OC)c3)cc2c1=O	?
COc1ccc(N2CSC3=C(C#N)C(c4cc(OC)ccc4OC)CC(=O)N3C2)c(OC)c1 (stereo unspecified)	15.8µM*
C/C=C/CSc1nc2c(c(=O)[nH]c(=O)n2C)n1Cc1ccc(C)cc1	-4.9%
Cc1nc(NCCCN2CCOCC2)c2oc3ccccc3c2n1	-7.8%
COC(=O)c1cc(Br)c(=O)n(CC(C)C)c1	-24.0%
CCC(C)(C)n1nnnc1C(c1ccccc1OC)N1CCSCC1 (stereo unspecified)	-0.3%
COc1ccc(OC)c(S(=O)(=O)Nc2cnc3ccccc3c2)c1	-0.5%
O=c1[nH]c(N2CCN(c3ccccc3)CC2)nc2c1CCC2	-0.6%
COc1ccc(-c2cc3nc(C)c(CCC(=O)NCc4ccco4)c(C)n3n2)c(OC)c1	31.6µM*
O=C(c1cc(C(F)(F)F)cc(C(F)(F)F)c1)N1CCC[C@@]2(CCN(c3ccccc3)C2)C1	-14.1%
CSc1nnc(Cn2c(=O)sc3ccccc32)n1C	2.2%

A portion of the library; the hit share may differ from the screen's.
